Screens from PubChem BioAssay.
H5N1 antiviral = MDCK cell protection from H5N1 avian flu; inhibition, % at 50 µM; cytopathic effect, luminescence, 72 h; stronger effect = higher value; no value below 0 was filed and about half of the inactive calls have no number; reference of the scale not given here; hit rate 0.07% among 96,000; in the data active = inhibition above about 25%
The depositor's hits bear a star; i = inactive. An excerpt (hit frequency here may not be typical).

SMILES	H5N1 antiviral
COCCN1C(=O)c2ccccc2C(C(=O)NCCN(C)C)C1c1ccc(F)cc1 (stereo unspecified)	i
Cc1ccc(-n2[nH]c(C)c(C=Nc3ccc4[nH]c(=O)[nH]c4c3)c2=O)cc1C	i
COc1ccc(S(=O)(=O)N2CCN(CC(=O)Nc3cccc(F)c3)CC2)cc1	3.0
COc1ccc(CCNC(=O)CSc2ncnc3c2oc2ccccc23)cc1OC	1.1
COC(=O)c1ccsc1NC(=O)CN1CCN(Cc2ccc3c(c2)OCO3)CC1	i
CNC(=S)NNC(=O)c1sccc1OCc1ccccc1	0.8
COC(=O)CSC1=NP(=S)(SCC(=O)OC)N2CCCC2=C1C#N (stereo unspecified)	0.9
CSC1=C(C#N)C(CC(C)C)C2=C(CCCC2=O)N1 (stereo unspecified)	0.5
CCOC(=O)C1=C(O)C(=O)N(c2ccc(S(N)(=O)=O)cc2)C1c1ccccc1 (stereo unspecified)	1.4
Cn1c(=O)cc(OCC(=O)N2CCN(C3CCCCC3)CC2)c2ccccc21	1.5
CC(C)C(=O)NC(C)C(c1cccs1)N1CCOCC1 (stereo unspecified)	i
COc1ccc(C)cc1NC(=O)c1cnc2scc(C)n2c1=O	3.2
N#C/C(=C\c1ccc(F)cc1)c1n[nH]c(Cn2cncn2)n1	0.5
COc1ccccc1N1CCN(C(=O)CN(c2ccccc2OC)S(=O)(=O)c2ccccc2)CC1	0.5
O=C(O)C1CC=CCC1C(=O)N1CCCC1 (stereo unspecified)	i
CC(C)c1ccc(OCC(=O)NC(=S)Nc2ccc3c4c(cccc24)CC3)cc1	i
CCN1CCCC1CN(Cc1cc2c(C)cc(C)cc2[nH]c1=O)C(=O)NC1CCCCC1 (stereo unspecified)	i
Cc1cc(CSc2ccccc2)ccc1NC(=O)c1ccc(Cl)c([N+](=O)[O-])c1	i
CN1CCN(c2ccc([N+](=O)[O-])c(-n3nc(-c4ccccc4)c4ccccc4c3=O)c2)CC1	i
Cc1ccccc1-c1nc(CN2CCC(C(=O)NCc3ccco3)CC2)c(C)o1	i
CCCCCn1c(CCCNC(=O)CC)nc2ccccc21	i
COc1cc(C(O)P(=O)(OC2CCCCC2)c2ccc(N(C)C)cc2)cc(OC)c1OC (stereo unspecified)	i
CCOC(=O)c1ccc(NC(=O)CCc2nc(-c3ccc(Cl)cc3)no2)cc1	i
O=C(O)C1CC(=O)N(c2ccc(OCc3ccccc3)cc2)C1 (stereo unspecified)	0.4
CCNC(=O)c1ccc(-n2nc(C)cc2-c2ccccc2)cc1	i
CCN(CC)C(=O)CSc1nc2ccccc2c(=O)n1CC	0.8
Cc1cc(C)n(C(=O)CCCCCC(=O)n2nc(C)cc2C)n1	i
FC(F)(F)c1ccccc1NC(=S)NN1CCOCC1	i
CC(NC(=O)c1ccc(Cl)cc1)c1nnc(SCc2ccc([N+](=O)[O-])cc2)n1C (stereo unspecified)	i
C/C=C/Cn1c(Br)nc2c1c(=O)n(C)c(=O)n2C	0.5
COc1cc(CNCCc2ccc(S(N)(=O)=O)cc2)ccc1OCc1ccc(Cl)cc1	i
COc1ccc(C(=O)/C=C/N2CCCCC2)cc1OC	0.4
C=CCSc1nc(NC)c2sccc2n1	i
CCOC(=O)c1ccccc1NS(=O)(=O)c1ccccc1F	i
O=Nc1c(O)n(Cc2ccc(Cl)cc2Cl)c2ccccc12	2.9
CCn1c(SCC(=O)Nc2nc(C)c(C)s2)nnc1-c1ccco1	0.5
CCc1ccc(CNC(=O)C2CCCN(c3nc4ccccc4o3)C2)cc1 (stereo unspecified)	i
O=C(NNC(=O)c1ccc(SCC2CCCO2)c([N+](=O)[O-])c1)c1ccc(Cl)c([N+](=O)[O-])c1 (stereo unspecified)	i
CCOC(=O)Nc1cc2c(cc1C(C)=O)OCO2	i
CCOC(=O)c1cccc(N2C(=O)c3ccccc3S2(=O)=O)c1	i

Part of the list above, bar-delimited.
canonical_smiles | H5N1 antiviral
CCCCCn1c(CCCNC(=O)CC)nc2ccccc21 | i
COc1cc(C(O)P(=O)(OC2CCCCC2)c2ccc(N(C)C)cc2)cc(OC)c1OC (stereo unspecified) | i
CCOC(=O)c1ccc(NC(=O)CCc2nc(-c3ccc(Cl)cc3)no2)cc1 | i
O=C(O)C1CC(=O)N(c2ccc(OCc3ccccc3)cc2)C1 (stereo unspecified) | 0.4

New compounds follow.
SMILES	H5N1 antiviral
CCN(CC)S(=O)(=O)c1cc(C(=O)OCC(=O)c2ccc3c(c2)NC(=O)CO3)ccc1F	0.8
O=C(CN1CC(=O)Oc2ccccc21)NCc1ccco1	i
c1ccc(C(Cc2nc(-c3ccncc3)no2)c2ccccc2)cc1	i
COc1ccc(NS(=O)(=O)c2ccc(NC(=S)NC(=O)C(C)C)cc2)cc1	2.4
O=C(c1cc2nc(-c3ccco3)cc(C(F)(F)F)n2n1)N1CCN(c2ccc(F)cc2)CC1	0.2
Cc1ccc(C(C#N)c2ccc3c(C(F)(F)F)cc(C(F)(F)F)nc3n2)cc1 (stereo unspecified)	2.8
Cc1[nH]c2ccccc2c1C(=O)CSc1nc2ccccc2[nH]1	i
Cc1nnc(OCC(=O)NCCC2=CCCCC2)c2ccccc12	i
CN1c2ccccc2C(O)=C(C(=S)Nc2ccc(F)c(Cl)c2)S1(=O)=O	0.1
Cc1cc(Oc2ccccc2)nc(SCC(=O)Nc2ccccc2)n1	i
CCCCn1c(SCC(N)=O)nnc1-c1cc(OC)c(OC)c(OC)c1	i
OC(CN1C2=NCCN2c2ccccc21)c1ccccc1 (stereo unspecified)	i
O=C(Cn1ncc2c1-c1ccccc1OC2)Nc1ccc(Cl)cn1	0.6
Brc1cc2c(cc1/C=N/Nc1nc(N3CCCC3)nc(N3CCOCC3)n1)OCO2	i
COc1ccccc1NS(=O)(=O)c1ccc(C(=O)OCC(=O)NCc2ccco2)cc1	0.2
O=C(CNS(=O)(=O)c1cccc2nsnc12)NCc1ccc(Cl)cc1	i
O=S(=O)(NC1CCCC1)c1ccc(S(=O)(=O)N(Cc2cccs2)CC2CCCO2)cc1 (stereo unspecified)	7.7
COC(=O)c1cc(NC(=O)N2c3ccccc3Sc3ccccc32)cc(C(=O)OC)c1	i
CCOC(=O)N1CCN(C(=O)CN(c2cc(Cl)ccc2OC)S(=O)(=O)c2ccccc2)CC1	2.3
Cc1ccc(SCC(=O)Nc2cccc(-c3nnc(-c4ccco4)o3)c2)cc1	i

Looked up above:
O=S(=O)(NC1CCCC1)c1ccc(S(=O)(=O)N(Cc2cccs2)CC2CCCO2)cc1 (stereo unspecified) in H5N1 antiviral is entered as 7.7
COc1ccc(C)cc1NC(=O)c1cnc2scc(C)n2c1=O in H5N1 antiviral is entered as 3.2

New compounds follow:
SMILES	H5N1 antiviral
COc1cccc(C(=O)N(CN2CCCC2=O)c2cccc(Cl)c2)c1OC	0.7
Cc1cc(C(=O)Nc2sc(C)c(C)c2C#N)no1	0.5
CCN(CC)C(=O)CCCOc1ccc(Cl)cc1Cl	0.9
O=P(O)(COc1ccccc1)COc1ccccc1	i
Cc1cc2ccccc2c(=O)n1CC(=O)N1CCN(c2cccc(Cl)c2)CC1	i
C=CCn1c(NC(C)c2cc(Cl)ccc2O)nc2ccccc21 (stereo unspecified)	4.0
Cc1ccc(S(=O)(=O)N(CC(=O)N2CCCCCC2)c2ccccc2)cc1	0.9
O=C(CN1CCC(c2nc3ccccc3s2)CC1)NCc1cccs1	0.3
Cc1cccn2c(=O)c3cc(C(=O)NCc4ccco4)c(=N)n(C(C)C)c3nc12	13
CCC(C)NC(=O)NC1C(NC(=O)NC(C)CC)N(C)C(=O)N1C (stereo unspecified)	i
COc1cc(C2C(C#N)=C(N)OC3=C2C(=O)CCC3)ccc1OC(=O)N1CCOCC1 (stereo unspecified)	i
CC1(C)CC(=O)C(C(C#Cc2ccccc2)C2=C(O)CC(C)(C)CC2=O)=C(O)C1	i
Cc1cc(C(=O)COC(=O)c2ccc3c(c2)OCO3)c(C)n1Cc1cccs1	i
Cc1ccc(C)c(Cn2nnc3c(=O)[nH]c(C4CCN(C(=O)c5cccs5)CC4)nc32)c1	7.5
CCOc1ccc(N(CC)C(=O)COc2cc(=O)n(CC)c3ccccc23)cc1	1.8
CCOc1ccccc1C(=O)n1nc(C)cc1C	0.2
CC(CCc1ccccc1)NC(=O)c1ccncc1 (stereo unspecified)	1.0
Oc1[nH]c2ccccc2c1C=Nc1ccc2c(c1)OCO2	i
CCOCCCNC(=O)N1CCOCC1	0.9
Cc1cccc(NC(=O)CCCN2C(=O)c3ccccc3C2=O)n1	i
Cn1c(=O)c2c(nc(NCc3ccc4c(c3)OCO4)n2Cc2ccc(F)cc2)n(C)c1=O	i
Cc1nc(S(=O)(=O)c2ccc(Cl)cc2)c(NCc2ccccc2)o1	0.4
Fc1cccc(Cn2cc(C(=S)N3CCCCC3)c3ccccc32)c1	i
COc1ccc(NS(=O)(=O)c2ccc(OCC(=O)N3CCOCC3)cc2)cc1	i
Cn1c(NCc2ccccc2)nc2c1c(=O)n(Cc1ccccc1)c(=O)n2C	i
CC1(C)CC(=O)C2=C(C1)Oc1ncn(Cc3ccco3)c(=N)c1C2c1ccccc1 (stereo unspecified)	0.8
CC(C)C(=O)NS(=O)(=O)c1ccc(N)cc1	i
COc1cccc(-c2nnc(SCC(=O)Nc3cc(C)on3)n2C)c1	i
O=C(Nc1cccc(C(F)(F)F)c1)NC1CCN(S(=O)(=O)c2ccc(F)cc2)CC1	i
O=C1C2C3C=CC(C4CC34)C2C(=O)N1/N=C/c1ccc(-c2ccccc2[N+](=O)[O-])o1 (stereo unspecified)	2.5
COc1ccc(Cc2nnc(-c3ccc(F)cc3)o2)cc1OC	1.4
Cn1c(=O)c2c(SCC(=O)N3CCCc4ccccc43)nc(CC(C)(C)C)nc2n(C)c1=O	i
Cc1nc(CS(=O)c2ccc(Cl)cc2)cc(N2CCOCC2)n1 (stereo unspecified)	0.5
O=C(c1ccccc1)[C@H]1CC=CC[C@H]1C(=O)O	0.1
N/C(=N\OC(=O)Cc1ccccc1)c1ccccn1	1.1
COC(=O)c1ccc(NC(=O)COc2ccccc2OC)cc1	0.4
COC(=O)c1ccc(CSc2nc3ccccc3s2)o1	0.1
O=C(OCC(=O)c1ccccc1Br)c1ccccn1	0.1
O=C(NCCCCCNC(=O)c1cccnc1)c1cccnc1	i
COCCN(CCOC)C(=O)c1cc2sc3ccccc3c2s1	1.5
COc1cccc(-n2nnc3c(=O)n(CC(=O)N4CCCc5ccccc54)cnc32)c1	i
O=C(c1ccc2c(c1)OCO2)n1nnc2ccccc21	0.2
O=C(NCCCN1CCCCCC1)c1ccc2c(c1)NC(=O)C(N1CCOCC1)S2 (stereo unspecified)	i
O=C(COC(=O)c1cccc(S(=O)(=O)N2CCOCC2)c1)Nc1ncc(C(F)(F)F)cc1Cl	i
CN(C)C(CNC(=O)c1cccc(S(=O)(=O)N2CC3(C)CC2CC(C)(C)C3)c1)c1ccco1 (stereo unspecified)	i
Nn1c(SCC(=O)N2CCCc3ccccc32)nnc1-c1ccccc1	0.1
Nc1c(S(=O)(=O)c2cc(Cl)ccc2Cl)c2nc3ccccc3nc2n1CCN1CCOCC1	i
C/C(=C\c1ccccc1)CN1CCN(c2cccc(Cl)c2)CC1	0.4
O=C(O)c1ccc(CSc2nnc(COc3ccc(Cl)cc3Cl)o2)cc1	1.2
Cc1ccc(C)c(NC(=O)CSc2nnc(-c3ccncc3)n2N)c1	i
Cc1nnc2c3ccccc3c(-c3cccc4ccccc34)nn12	1.9
Oc1ccc(Cl)cc1C(C#Cc1ccccc1)N1CCOCC1 (stereo unspecified)	0.1
Cc1ccc(O)c(C(=O)c2cnn(C(=O)Cc3csc(C)n3)c2)c1	0.8
CC1=C(C#N)C(=O)NC(C)(C)C1	0.6
COc1ccc(-c2cc(C(=O)NCc3ccco3)no2)cc1OC	0.1
COc1ccccc1NC(=O)CC1C(=O)NCCN1C(=O)Nc1ccccc1 (stereo unspecified)	0.9
Fc1ccc(NC(=S)N2N=CCC2c2ccccc2)cc1 (stereo unspecified)	0.2
COC(=O)CCCC(=O)N1CCOCCN(C(=O)CCCC(=O)OC)CCOCC1	i
CCOc1ccccc1N1CCN(C(=O)c2cccc(-c3ccc(O)cc3)c2)CC1	1.1
Cc1ccc(S(=O)(=O)N(C)c2ccc(C(=O)N3CCCCC3)cc2)cc1	1.2

In the list so far, these contain bromine.
SMILES	H5N1 antiviral
C/C=C/Cn1c(Br)nc2c1c(=O)n(C)c(=O)n2C	0.5
Brc1cc2c(cc1/C=N/Nc1nc(N3CCCC3)nc(N3CCOCC3)n1)OCO2	i
O=C(OCC(=O)c1ccccc1Br)c1ccccn1	0.1

The listing picks up with the 7 entries that preceded the break.
SMILES	H5N1 antiviral
CC1=C(C#N)C(=O)NC(C)(C)C1	0.6
COc1ccc(-c2cc(C(=O)NCc3ccco3)no2)cc1OC	0.1
COc1ccccc1NC(=O)CC1C(=O)NCCN1C(=O)Nc1ccccc1 (stereo unspecified)	0.9
Fc1ccc(NC(=S)N2N=CCC2c2ccccc2)cc1 (stereo unspecified)	0.2
COC(=O)CCCC(=O)N1CCOCCN(C(=O)CCCC(=O)OC)CCOCC1	i
CCOc1ccccc1N1CCN(C(=O)c2cccc(-c3ccc(O)cc3)c2)CC1	1.1
Cc1ccc(S(=O)(=O)N(C)c2ccc(C(=O)N3CCCCC3)cc2)cc1	1.2
Cn1c(=O)[nH]c(=O)c2c1nc(CN1CCOCC1)n2Cc1ccccc1	2.2
CC1CN(C(=O)CSc2nc(-c3ccc(F)cc3)cs2)CC(C)O1 (stereo unspecified)	i
Cc1ccc(S(=O)(=O)NCC(=O)N2CCOCC2)cc1	i
CC1CCCN(C(=O)CSc2nc3ccccc3o2)C1 (stereo unspecified)	i
O=C(NCc1ccco1)c1ccc2c(=O)n(Cc3ccco3)c(SCC(=O)N3CCCC3)nc2c1	3.9
CCCn1nnnc1NCc1ccccc1OCc1cccs1	3.9
COc1ccc(OC)c(C2=NOC(C(=O)NCC3CCCO3)C2)c1 (stereo unspecified)	i
COCCCNC(=O)Nc1ccc(F)cc1F	0.7
COC(=O)c1cc(Cl)c(NC(=O)c2cc3ccccc3o2)cc1OC	i
Cc1ccc2c(Cl)cc(Cl)c(OCC(=O)Nc3cc(C)on3)c2n1	0.8
CCn1c(=S)sc2c(=O)[nH]c(C)nc21	i
